High-throughput results deposited in PubChem BioAssay by The Scripps Research Institute Molecular Screening Center.
M1 PAM parental = nonselective calcium activators in parental CHO-K1 cells, primary screen, counter-screen for M1 PAM project, cell-based, Fluo-8 calcium fluorescence, full deck, 1536-well. ATP EC20; 0% at ATP EC20, 100% at ATP max. AID 602247, 2012. activation, % at 3 µM. hit rate 0.02% among 360,000;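 active means activation above the run cutoff, the mean activation of all test compounds plus 3 SD, cut at about 40% in these data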;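 further: peak over basal fluorescence ratio in a 140 s read after ATP addition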
CHO-K1 Ca ag = counter-screen for M1 agonists: effect in parental CHO-K1 cells. activation, % at 3 µM. hit rate 0.48% among 360,000. Fluo-8 calcium fluorescence; scaled to maximal ATP response, vehicle zero; in the data active means activation above about 15%;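 further: untransfected CHO-K1 host cells lacking M1 receptor as counterscreen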
OXTR potentiate = human OXTR potentiators, primary screen, fluorescence, CHO-OTR cells, Fluo-8 calcium. Fluo-8 calcium fluorescence, potentiator mode; 0% = oxytocin EC15, 100% = EC100. activation, % at 3 µM. hit rate 0.061% among 320,000;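 active means activation above that plate's cutoff, the mean activation of tested compounds plus 3 SD, cut at about 6.6% in these data, passing the limit was not always enough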;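 further: 100% uses oxytocin at 75 nM as the full agonist control; some results filed as inactive read as strong as hits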
Target sequence (P30559 whole entry, looked up): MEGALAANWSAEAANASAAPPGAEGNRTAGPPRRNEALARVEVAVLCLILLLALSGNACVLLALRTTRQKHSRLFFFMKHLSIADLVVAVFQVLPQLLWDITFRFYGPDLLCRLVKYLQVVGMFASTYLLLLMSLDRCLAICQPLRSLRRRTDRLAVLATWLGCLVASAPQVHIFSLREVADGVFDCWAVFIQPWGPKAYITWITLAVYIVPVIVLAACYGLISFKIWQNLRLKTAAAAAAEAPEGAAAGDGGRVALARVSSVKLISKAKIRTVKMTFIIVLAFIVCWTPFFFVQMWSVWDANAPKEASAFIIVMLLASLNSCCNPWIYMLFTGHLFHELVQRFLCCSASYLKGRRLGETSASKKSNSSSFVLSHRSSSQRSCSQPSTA
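System: human OTR in CHO cells; Also added: sub-maximal oxytocin, roughly EC15; Timing: compound 6 min at room temperature before oxytocin, 100 s read; Technique: Fluo-8 intracellular calcium fluorescence, ex 470-495, em 515-575 nm; Controls: oxytocin EC15 low and EC100 high; Replication: singlicate.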
V1aR counter = agonists of human V1a receptor, primary screen, counter-screen for OXTR agonist project, fluorescence, CHO-V1R cells | Fluo-8 calcium fluorescence, agonist mode; 0% DMSO, 100% 3 nM vasopressin | activation, % at 3 µM | hit rate 0.25% among 320,000 | AID 2797, 2010;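 active means activation above the mean activation of all tested compounds plus 3 SD, per screening run, cut at about 20% in these data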;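 further: signal is peak over basal fluorescence ratio across a 100 second FLIPR read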
M1 ag = human M1 muscarinic receptor agonists, primary screen, Fluo-8 calcium fluorescence, CHO-K1 cells, HTS. AID 588814, 2011. CHO-K1 hM1, agonist mode; 0% DMSO, 100% acetylcholine EC100. hit rate 0.33% among 360,000. activation, % at 3 µM. Muscarinic acetylcholine receptor M1 (Homo sapiens), P11229;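 active means activation above the run's mean compound activation plus 3 SD, cut at about 16% in these data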;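 further: peak over basal fluorescence ratio within a 140 s kinetic read after compound addition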
* marks the source's active call; other numbers are inactive results; . = no result given. Some of the compounds tested, so the mix of outcomes need not match the whole.

cpd | compound | M1 PAM parental | CHO-K1 Ca ag | OXTR potentiate | V1aR counter | M1 ag
1 | COc1cccc(N2CCN(CC(=O)Nc3ccc(-n4cnnn4)cc3)CC2)c1 | -1.9 | 0.3 | -4.7 | -0.5 | -2.7
2 | CC(CNC(=O)C1CCCCC1C(=O)O)c1ccccc1 (stereo unspecified) | 6.2 | -0.2 | -8.2 | 0.7 | -5.3
3 | Cc1nn(Cc2c(F)c(F)c(F)c(F)c2F)c(C)c1NC(=O)c1ccc(COc2ccccc2Cl)cc1 | 14.2 | 0.7 | . | . | -1.6
4 | Oc1c(C(c2ccc(F)cc2)N2CCc3ccccc3C2)sc2ncnn12 (stereo unspecified) | 20.4 | 1.2 | -3.5 | 1.9 | -5.1
5 | CC(C)(C)CN1CCNC(=O)C1CC(=O)NCCc1ccccc1F (stereo unspecified) | -1.6 | 0.1 | -15.1 | -0.4 | -4.9
6 | O=C(O)C1CC=C(Cl)CC1C(=O)NCC1OCCc2ccccc21 (stereo unspecified) | 2.9 | 0.3 | -3.0 | -0.1 | -3.0
7 | CC1NC(C)c2c(ccc3ccccc23)O1 (stereo unspecified) | 11.6 | -0.5 | . | . | -0.7
8 | CC(C)Cn1c(SCC(=O)N2CCc3ccccc3C2)nc(O)cc1=O | 7.2 | 0.1 | -7.0 | 0.6 | -3.7
9 | Cc1nn(C(=O)CCC(=O)NCCc2ccccc2)c2ccccc12 | 3.7 | 1.0 | -9.9 | 0.0 | -4.9
10 | Cc1c2cc(O)c(=O)cc-2oc2cc(O)c(O)cc12 | 27.1 | 2.2 | -13.6 | 7.8 | -1.1

9 of the compounds above, with values under each structure.
Values run as follows: M1 PAM parental, CHO-K1 Ca ag, OXTR potentiate, V1aR counter, M1 ag
#1 COc1cccc(N2CCN(CC(=O)Nc3ccc(-n4cnnn4)cc3)CC2)c1
  -1.9, 0.3, -4.7, -0.5, -2.7
#2 CC(CNC(=O)C1CCCCC1C(=O)O)c1ccccc1 (stereo unspecified)
  6.2, -0.2, -8.2, 0.7, -5.3
#3 Cc1nn(Cc2c(F)c(F)c(F)c(F)c2F)c(C)c1NC(=O)c1ccc(COc2ccccc2Cl)cc1
  14.2, 0.7, ., ., -1.6
#4 Oc1c(C(c2ccc(F)cc2)N2CCc3ccccc3C2)sc2ncnn12 (stereo unspecified)
  20.4, 1.2, -3.5, 1.9, -5.1
#5 CC(C)(C)CN1CCNC(=O)C1CC(=O)NCCc1ccccc1F (stereo unspecified)
  -1.6, 0.1, -15.1, -0.4, -4.9
#6 O=C(O)C1CC=C(Cl)CC1C(=O)NCC1OCCc2ccccc21 (stereo unspecified)
  2.9, 0.3, -3.0, -0.1, -3.0
#7 CC1NC(C)c2c(ccc3ccccc23)O1 (stereo unspecified)
  11.6, -0.5, ., ., -0.7
#8 CC(C)Cn1c(SCC(=O)N2CCc3ccccc3C2)nc(O)cc1=O
  7.2, 0.1, -7.0, 0.6, -3.7
#9 Cc1nn(C(=O)CCC(=O)NCCc2ccccc2)c2ccccc12
  3.7, 1.0, -9.9, 0.0, -4.9

The listing continues:
cpd | compound | M1 PAM parental | CHO-K1 Ca ag | OXTR potentiate | V1aR counter | M1 ag
11 | Cc1ccccc1C(=O)N/N=C/c1ccc(Sc2ccccn2)o1 | -7.0 | 0.2 | -2.0 | 1.4 | 3.2
12 | COc1ccc(Nc2cc(C)c3c(O)cccc3n2)cc1 | 14.9 | 6.2 | -5.0 | 5.5 | -1.4
13 | CC(C)(C)c1ccc(-n2ncc3c2CCCC3NC(=O)CCN2CCCC2=O)cc1 (stereo unspecified) | 7.9 | 7.6 | -1.2 | 7.5 | -1.1
14 | c1ccc(CCN2CN(CCCN3CCOCC3)c3nc4ccccc4n3C2)cc1 | 12.0 | 0.1 | -0.9 | -0.3 | 0.3
15 | COc1cccc(C(=O)Nc2cc3c(cc2N2CCCC2)n(C)c(=O)n3C)c1 | 9.6 | 0.8 | -5.7 | -1.3 | -4.3
16 | CCCCC(=O)Nc1ccc(C(=O)Nc2ccc(S(=O)(=O)N3CCCC3)cc2)cc1 | -6.6 | 1.4 | -3.3 | 6.8 | 0.0
17 | O=[N+]([O-])c1[nH]cnc1/C=C/c1ccccc1 | 2.5 | 1.2 | -5.5 | 4.0 | -0.7
